KCNQ2 block = KCNQ2 channel blockers in CHO-K1 cells – cell-based, FluxOR thallium flux, B-score, primary screen (AID 2156); B-score at 10 µM; 20 min; hits give low values; only compounds with negative scores are shown here; some inactives read as strong as hits; O88943; actives 1.1% (n = 310,000);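 active = fluorescence ratio B-score at most minus 3 library SDs, with starting brightness B-score within 2 library SDs, cut at about -5.5 in these data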
Target sequence (O88943 whole entry, looked up): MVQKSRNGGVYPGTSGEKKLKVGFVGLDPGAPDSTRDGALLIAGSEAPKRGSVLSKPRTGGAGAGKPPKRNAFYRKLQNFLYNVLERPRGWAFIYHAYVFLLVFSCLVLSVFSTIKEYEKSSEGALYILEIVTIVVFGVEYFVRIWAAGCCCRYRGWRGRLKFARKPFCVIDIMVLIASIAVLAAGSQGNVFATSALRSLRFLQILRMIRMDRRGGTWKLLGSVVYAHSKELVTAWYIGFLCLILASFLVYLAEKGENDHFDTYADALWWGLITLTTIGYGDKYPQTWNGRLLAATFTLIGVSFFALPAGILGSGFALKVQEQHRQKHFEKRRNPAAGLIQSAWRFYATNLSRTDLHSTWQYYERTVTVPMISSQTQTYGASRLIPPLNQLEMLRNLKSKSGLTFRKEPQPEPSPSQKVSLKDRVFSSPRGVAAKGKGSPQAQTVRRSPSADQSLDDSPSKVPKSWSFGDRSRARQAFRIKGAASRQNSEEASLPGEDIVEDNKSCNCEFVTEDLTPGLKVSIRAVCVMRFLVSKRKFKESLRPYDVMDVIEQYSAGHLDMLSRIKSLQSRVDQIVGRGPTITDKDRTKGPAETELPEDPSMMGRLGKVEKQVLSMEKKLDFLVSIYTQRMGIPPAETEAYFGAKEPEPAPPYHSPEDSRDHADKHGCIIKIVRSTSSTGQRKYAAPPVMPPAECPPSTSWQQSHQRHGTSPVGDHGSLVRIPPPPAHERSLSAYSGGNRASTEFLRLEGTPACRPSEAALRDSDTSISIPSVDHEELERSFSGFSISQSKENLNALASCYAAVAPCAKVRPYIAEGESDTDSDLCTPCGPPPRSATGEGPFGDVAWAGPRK
KCNQ2 block baseline = recorded beside KCNQ2 block, whose call it bears; B-score; measured here: initial fluorescence intensity artifact check;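 brightness before thallium and not channel activity; 0 = typical well and far values either way flag optical interference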
Starred values were filed as active, the others as inactive; i = inactive. Not all compounds are listed; rates above refer to the full screens.

SMILES	KCNQ2 block	KCNQ2 block baseline
COC(=O)[C@@H]1CC[C@H](C)[C@@H](c2ccc(C)cc2)N1C(=O)c1ccc(/C=N/O[C@H](C)c2cn([C@@H]3COC[C@H]3O)nn2)cc1	i	-1.1
CC(=O)c1cc2c(ccc3ccccc32)oc1=O	i	-0.31
CCc1cc(/C(Cc2ccccn2)=N\O)c(O)cc1O	i	-0.22
CCOC(=O)c1sc2nc3c(SCC(=O)O)cc(C(=O)c4ccccc4O)cn3c(=O)c2c1C	i	0.92
[N-]=C=C1C(=S)NC(=O)[C@H]([n+]2ccccc2)[C@H]1c1ccc(Cl)cc1	i	1.9
Clc1ccc(-n2ncc3c(NCCCn4ccnc4)ncnc32)cc1	i	1.4
CC(=O)NC(c1ccccc1)c1nc2ccccc2[nH]1 (configuration not stated)	i	-2
COc1c[nH]n(C2CCCCC2)c(=O)c1=O	i	-0.89
CCCCCCc1cc2cc(-c3nnc(-c4ccccc4)o3)c(=O)oc2cc1O	i	32
CN(CCO)C(=O)c1c(NC(=O)c2ccccc2)sc2c1CCCC2	i	-1.2
CCn1c(C)c(C)c2cc(C(=O)NCCN3CCCCCC3)ccc21	i	-1.3
O=C(NC(=S)N1CCCCCC1)C1CC1	i	0.01
CCc1ccc2c(CN(C)Cc3ccc(OC(F)F)c(OC)c3)cc(=O)oc2c1	i	1.3
CCOc1ccc(/C=C2\SC(=S)N(CC(=O)Nc3ccccn3)C2=O)cc1	i	0.14
CS(=O)(=O)N(CC(=O)NCC1CCCO1)c1cccc([N+](=O)[O-])c1 (configuration not stated)	i	-1.5
O=C(CSc1nnc(-c2cccnc2)n1Cc1ccco1)Nc1nc(-c2ccc(F)cc2)cs1	i	-0.3
Cc1cc(C)cc(-n2c(SC(C)C(=O)NCc3ccc4c(c3)OCO4)nc3ccccc3c2=O)c1 (configuration not stated)	i	-1.3
COc1ccccc1/C=C/C(=O)OCC(=O)NCCC1=CCCCC1	i	0.04
Clc1cc2c(c(Cn3cnc4ccccc43)c1)OCOC2	i	-0.79
Cc1ccc(NC(=O)COc2cccc(/C=C3\SC(=S)N(CCC(=O)O)C3=O)c2)cc1Cl	i	1
COc1ccc2[nH]cc(CCNC(=S)NCCc3ccccc3)c2c1	i	-2.6
COc1cc(C(=O)NC2Cc3ccccc3C2)ccc1OC1CCN(C(C)=O)CC1	i	-1.2
O=C(CSc1ccccc1)Nc1ccc(C(=O)Nc2ccc(O)cc2)cc1	i	2.8
O=[N+]([O-])c1cc(C(F)(F)F)cc([N+](=O)[O-])c1NCCN1CCNCC1	i	4.7
Cn1c(-c2cc3ccccc3oc2=O)nc2ccccc21	i	1.1

(listing goes on)
SMILES	KCNQ2 block	KCNQ2 block baseline
O=C(COn1nnc2ccccc21)N1CCN(Cc2ccccc2)CC1	i	2.1
COc1cccc(/C=C2\SC(=O)NC2=O)c1OCc1ccc(C(=O)O)cc1	i	-0.72
O=C1CN(C(=O)COC(=O)CCNS(=O)(=O)c2ccc(Cl)cc2)c2ccccc2N1	i	0.7
Cn1c(=O)[nH]c(=O)c2c1nc(SCCO)n2Cc1ccccc1Cl	i	1.6
O=C(CSCc1ccc(F)cc1)Nc1ccc(F)cc1	i	0.29
Cc1ccccc1CN1C[C@@H]2C[C@@H](c3ccc4nsnc4c3)N3CCC[C@@]23C1=O	i	-0.63
COc1ccc(CCNC(=O)C2CCCN(Cc3nc(-c4cccc(Cl)c4)oc3C)C2)cc1OC (configuration not stated)	i	-0.95
Cc1cccc(CNS(=O)(=O)c2csc(C(N)=O)c2)c1	i	-0.43
O=C(N/N=C/C1CCCCC1)c1ccccc1-n1cccc1	i	0.05
CCC(C)(C)C1CCC2(CC1)NC(=O)N(CC(=O)N(C)CC(=O)Nc1ccccc1C(F)(F)F)C2=O (configuration not stated)	i	0.97
Cn1c(=O)[nH]c(=O)c2c1nc(N1CCNCC1)n2Cc1cccc2ccccc12	i	0.27
CSc1ccc(C2C(C#N)=C(N)N(c3ccccc3)C3=C2C(=O)CCC3)cc1 (configuration not stated)	i	0.7
CCCCNC(=O)CN1CCC2(O)CCCCC2C1c1ccccc1OC (configuration not stated)	i	1.5
COC(=O)c1ccc(CSc2ncnc3ccccc23)o1	i	1.1
COc1ccc(S(=O)(=O)N2CC(=O)Nc3ccccc32)cc1F	i	-0.81
Cc1cc(CNC(=O)COc2ccc(F)cc2Cl)cc(C)c1O	i	1.3
CCCc1cc(=O)[nH]c(SCC(=O)N2CCN(S(=O)(=O)c3ccc(C)cc3)C2)n1	i	0.96
CS(=O)(=O)N(CC(=O)Nc1ccccc1Br)Cc1ccccc1	i	0.66
CCC(C(=O)NC1CCCC1)N(C(=O)Cn1nnc(-c2ccc(C)o2)n1)c1ccc(OC)cc1 (configuration not stated)	i	-0.83
CCOC(=O)N1CCN(CC(=O)Nc2ccc(C)c(Br)c2)CC1	i	-0.39
CCOC(=O)c1ccc2nc(NC(NC(C)=O)(C(=O)OC)C(F)(F)F)sc2c1 (configuration not stated)	i	0.62
CCC(C)N(CCNC(=O)CC1Oc2ccc(C)cc2NC1=O)C1CCCCC1 (configuration not stated)	i	-2.3
Fc1cccc(COc2ccccc2C(=S)N2CCCC2)c1	i	-0.25
CCc1ccc(NC(=O)c2cc(-c3ccc(F)cc3)on2)cc1	i	-1.4
O=C(NCCCn1ccnc1)c1cc(-c2ccccc2)on1	i	1.5

The last four compounds of the section above open the next one:
SMILES	KCNQ2 block	KCNQ2 block baseline
CCC(C)N(CCNC(=O)CC1Oc2ccc(C)cc2NC1=O)C1CCCCC1 (configuration not stated)	i	-2.3
Fc1cccc(COc2ccccc2C(=S)N2CCCC2)c1	i	-0.25
CCc1ccc(NC(=O)c2cc(-c3ccc(F)cc3)on2)cc1	i	-1.4
O=C(NCCCn1ccnc1)c1cc(-c2ccccc2)on1	i	1.5
COc1ccccc1-n1c(O)c(C=NCc2ccccn2)c2ccccc2c1=O	i	-0.24
CC(=O)Nc1ccc(S(=O)(=O)NCC2CCC(C(=O)N3CCCCC3)CC2)cc1 (configuration not stated)	i	0.11
CSCCn1c(C(C)(C)C)cc(C(=O)O)c1C	i	-2
COc1ccc(NC(=O)C(=O)NCC(c2ccco2)N2CCc3ccccc3C2)cc1OC (configuration not stated)	i	-0.31
CCCc1cc(=O)[nH]c(SCC(=O)Nc2ccc3c(c2)CCC3)n1	i	1.8
Cc1ccc(Nc2nnc(C(C)(C)C)c(=O)n2N)cc1	i	2.8
CCCn1cc(CN2CCN(Cc3ccc(C)o3)C(CCO)C2)c(C)n1 (configuration not stated)	i	-0.07
CCOC(=O)c1cnc2c(c(C)nn2CC)c1NC1CC1	i	-1.3
CNc1nc(SCc2ccc(C)cc2)nc2c1CCCC2	i	1.2
COC(=O)c1ccc(Oc2nc(C)cc(Oc3ccccc3)n2)cc1	i	-0.16
CCOC(=O)/C(=C\c1ccc(C)cc1)NC(=O)c1ccccc1	i	-0.51
CCn1c(=S)[nH]c2cc(S(=O)(=O)N3CCCCC3)ccc21	i	3.1
O=C(CCc1nc2ccccc2c(=O)[nH]1)Nc1ccc(N2CCCCC2)cc1	i	2.6
COc1ccc(/C=C/c2noc(-c3ccccc3O)n2)cc1	i	1.8
COc1cccc(NC(=S)NC2CC(C)(C)NC(C)(C)C2)c1	i	2.8
COc1cccc(CNC(=O)C2CCN(S(=O)(=O)c3ccc4c(c3)OCCO4)CC2)c1	i	0.73
COC(=O)c1cc(NC(=O)c2c(Cl)cnn2C)cc(C(=O)OC)c1	i	1.3
Cc1ccc(-c2nnc(-n3nnc4ccccc43)c3ccccc23)cc1	i	0.05
CCCc1cc2c(OC(=O)CC)c(-c3ccc(C(=O)OCC)o3)c(=O)oc2cc1OC	i	0.05
Cc1cc(C)cc(N2C(N)=NC(N)=NC2c2ccccc2F)c1 (configuration not stated)	i	3.4
CC(C)Sc1nc2ccc(Br)cc2[nH]1	i	0.42
CCN1CCN(Cc2cccc(Oc3ccc(Cl)cc3)c2)CC1	i	-0.28
O=C1Cc2ccccc2C(=O)N1Cc1cccc(Cl)c1	i	-0.31
COC(=O)CSc1nc(N)nc(C)c1Cl	i	-0.2
Cc1ccccc1C(=O)NNC(=O)C1CC(=O)N(Cc2ccccc2)C1 (configuration not stated)	i	1.4

Sorted by SMILES length (smallest number first): part of the list above
SMILES	KCNQ2 block	KCNQ2 block baseline
CCn1c(=S)[nH]c2cc(S(=O)(=O)N3CCCCC3)ccc21	i	3.1
Cc1ccccc1C(=O)NNC(=O)C1CC(=O)N(Cc2ccccc2)C1 (configuration not stated)	i	1.4
CCCc1cc2c(OC(=O)CC)c(-c3ccc(C(=O)OCC)o3)c(=O)oc2cc1OC	i	0.05

The list goes on.
SMILES	KCNQ2 block	KCNQ2 block baseline
COc1ccc(-n2nnc3c(=O)n(Cc4cccc(C)c4)cnc32)cc1	i	-0.53
NS(=O)(=O)c1ccc(CCNCc2cccnc2)cc1	i	-0.42
COC(=O)c1ccc(CNC(=O)c2ccc(COc3ccccc3)cc2)cc1	i	-0.01
COCCCNC(=O)Cn1cc(/C=C(\C#N)C(=O)N2CCN(c3ccccc3)CC2)c2ccccc21	i	-0.11
COC(=O)c1ccc(C2=NOC(C)(c3nnc(-c4cccc(Cl)c4)o3)C2)cc1 (configuration not stated)	i	0.01
O=C(Cc1ccc([N+](=O)[O-])cc1)Nc1ccc(C(=O)N2CCOCC2)cc1	i	0.56
COc1cc(CN2CCC(C(=O)NCC(C)(C)CN(C)C)CC2)ccc1OCc1ccccc1	i	0.9
COc1ccc(OC)c(NC(=O)Cc2nn(C)c(=O)c3ccccc23)c1	i	3.1
NS(=O)(=O)c1ccc(NC2=CC(c3ccc([N+](=O)[O-])cc3)N(c3ccc(S(N)(=O)=O)cc3)C2=O)cc1 (configuration not stated)	i	-0.01
Cc1nc(Nc2ccccc2O)c2oc3ccccc3c2n1	i	0.5
S=C(Nc1ccc(Br)cc1)N1CCCC1	i	1.8
CCC(C)(C)n1nnnc1C(c1cc2cc(C)cc(C)c2[nH]c1=O)N1CCN(Cc2ccc3c(c2)OCO3)CC1 (configuration not stated)	i	-0.47
COc1ccc(N2CCN(c3ccnc4cc(Cl)ccc34)CC2)cc1	i	-0.52
Cc1cc(NC(=S)N(Cc2ccc(Br)cc2)Cc2ccc(C(=O)O)cc2)ccc1Cl	i	-0.66
CN(CC#CC1(O)c2ccccc2-c2ccccc21)Cc1ccccc1	i	-0.02
Cc1c(NC(=O)CCCOc2ccccc2)cccc1[N+](=O)[O-]	i	2.9
Cc1ccc(C(=O)OCC(=O)Nc2cccc(Cl)c2C)c(O)c1	i	-1.3
CN(C)S(=O)(=O)c1cc([N+](=O)[O-])ccc1N1CCCCCC1	i	1.9
Cc1ccc(N=Nc2c(C)[nH][nH]c2=O)c(C)c1	i	-0.56
O=c1cc(C(F)(F)F)[nH]c2ccccc12	i	1.1
COCC(=O)Nc1nnc(C2CCCCC2)s1	i	0.81
CN(Cc1ccccc1F)C(=O)CN1c2cccc3cccc(c23)S1(=O)=O	i	-1.2
Cc1cccc(N(C2C=CS(=O)(=O)C2)S(=O)(=O)c2ccccc2)c1 (configuration not stated)	i	0.04
Fc1ccccc1C1CCN(Cc2nc(CC3CC3)no2)C1 (configuration not stated)	i	1.6
O=C(c1ccccc1)c1nn(-c2cccc(Cl)c2)c2nc(-c3ccccc3)cc(=O)n12	i	-0.06

Part of the list above, field by field:
SMILES: Cc1ccc(N=Nc2c(C)[nH][nH]c2=O)c(C)c1
  KCNQ2 block: i; KCNQ2 block baseline: -0.56
SMILES: NS(=O)(=O)c1ccc(NC2=CC(c3ccc([N+](=O)[O-])cc3)N(c3ccc(S(N)(=O)=O)cc3)C2=O)cc1 (configuration not stated)
  KCNQ2 block: i; KCNQ2 block baseline: -0.01
SMILES: COc1cc(CN2CCC(C(=O)NCC(C)(C)CN(C)C)CC2)ccc1OCc1ccccc1
  KCNQ2 block: i; KCNQ2 block baseline: 0.9
SMILES: CN(Cc1ccccc1F)C(=O)CN1c2cccc3cccc(c23)S1(=O)=O
  KCNQ2 block: i; KCNQ2 block baseline: -1.2

Next part
SMILES	KCNQ2 block	KCNQ2 block baseline
CCc1ccc(O)c(N=Cc2ccccc2O)c1	i	-1
Cc1ccc(-n2nc3c(=O)n(CC(=O)NCc4ccccc4)nc(C)c3c2C)cc1	i	0.93
Cc1nc(N2CCOCC2)c2oc3ccccc3c2n1	i	0.71
CN1CCN(C(=O)C2C3C=CC(C3)C2C(=O)O)CC1 (configuration not stated)	i	0.37
O=C1/C(=N\S(=O)(=O)c2cccs2)C([n+]2ccccc2)=C([O-])c2ccccc21	i	0.04
CSc1ccccc1OCc1cc(C(=O)N2CCN3CCCC3C2)no1 (configuration not stated)	i	0.46
O=C(CN1CCN(c2ccccc2)CC1)Nc1ccc(Oc2ccccc2)cc1	i	0.58
Cc1ccc(Cn2ccc(NC(=O)c3cc(-c4ccc(F)cc4)on3)n2)cc1	i	0.97
CCNc1nc(Oc2ccc(=O)n(-c3ccccc3)n2)nc(N2CCOCC2)n1	i	-0.96
Nc1cccc(N2C(=O)c3cccc4c(N)ccc(c34)C2=O)c1	i	28
CCOc1nc(Nc2ccc(F)cc2)nc(N2CCN(c3ccc(OC)cc3)CC2)n1	i	1.1
COc1ccc(/C=N/NC(=O)C(=O)NCC2CCCO2)cc1 (configuration not stated)	i	0.92
CC12CN3CC(C)(CN(C1)C3c1ccc3ccccc3c1O)C2=O (configuration not stated)	i	0.96
CCCSc1nc2sc3c(c2c(=O)[nH]1)CCN(Cc1ccccc1)C3	i	6.6
CCOC(=O)Cc1csc(NC(=O)Cn2c(=O)oc3ccccc32)n1	i	-0.57
Oc1ccc(NCc2cccs2)cc1	i	-1.5
Cc1ccc(-c2nnn(CC(=O)N(Cc3ccccc3)C(C(=O)NC3CCCC3)c3ccncc3)n2)o1 (configuration not stated)	i	-0.36
CN(Cc1ccco1)C(=O)c1c[nH]c2ccc(S(=O)(=O)Nc3ccc4c(c3)OCCO4)cc2c1=O	i	2.4
COc1cccc(C2(CSc3nnc(-c4cc(OC)c(OC)c(OC)c4)o3)OCCO2)c1	i	-0.95
Cc1ccccc1C(=O)NCCCCc1ccccc1	i	-0.03

Compound activity from PubChem BioAssay.
